Resorufin fluor = compound fluoresces in the resorufin spectral region. Compound fluorescence, resorufin region 547/598 nm, buffer; stronger effect = higher value. max dye-equivalent concentration, M. 59,000 tested, 0.04% active. AID 588; active = above 10 nM dye equivalent; inconclusive = 1 to 10 nM; inactive = 1 nM or less; a few of its hits are not listed in these tables; also: highest value over a series up to 38 µM
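Compounds in 100 mM Tris, pH 8.0, incubated 15 min at room temperature, then fluorescence read at 547 nm excitation/598 nm emission. Signal converted to dye-equivalent concentration via an on-plate six-point resorufin standard curve, per compound concentration.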
TSHR agonist = TSH receptor (human) agonism; HEK293-CNG-TSHR cells (CNG channel as cAMP sensor), membrane potential dye, cAMP; Potency, µM (top dose mostly 57.1 µM), inactives show at the top dose activation, most hits filed as activators; 73,000 tested, 0.48% active; AID 926; active = well fitted activation curve of enough size with the parental cells flat; inconclusive = any curve in the parental cells; inactive = parental cells flat and receptor cells flat or falling; also: potency is read from the fitted curve at half-maximal effect; % of control where 0% means no effect; weak receptor curves with flat parental cells got no call and are not listed
Target sequence (P16473 whole entry, looked up): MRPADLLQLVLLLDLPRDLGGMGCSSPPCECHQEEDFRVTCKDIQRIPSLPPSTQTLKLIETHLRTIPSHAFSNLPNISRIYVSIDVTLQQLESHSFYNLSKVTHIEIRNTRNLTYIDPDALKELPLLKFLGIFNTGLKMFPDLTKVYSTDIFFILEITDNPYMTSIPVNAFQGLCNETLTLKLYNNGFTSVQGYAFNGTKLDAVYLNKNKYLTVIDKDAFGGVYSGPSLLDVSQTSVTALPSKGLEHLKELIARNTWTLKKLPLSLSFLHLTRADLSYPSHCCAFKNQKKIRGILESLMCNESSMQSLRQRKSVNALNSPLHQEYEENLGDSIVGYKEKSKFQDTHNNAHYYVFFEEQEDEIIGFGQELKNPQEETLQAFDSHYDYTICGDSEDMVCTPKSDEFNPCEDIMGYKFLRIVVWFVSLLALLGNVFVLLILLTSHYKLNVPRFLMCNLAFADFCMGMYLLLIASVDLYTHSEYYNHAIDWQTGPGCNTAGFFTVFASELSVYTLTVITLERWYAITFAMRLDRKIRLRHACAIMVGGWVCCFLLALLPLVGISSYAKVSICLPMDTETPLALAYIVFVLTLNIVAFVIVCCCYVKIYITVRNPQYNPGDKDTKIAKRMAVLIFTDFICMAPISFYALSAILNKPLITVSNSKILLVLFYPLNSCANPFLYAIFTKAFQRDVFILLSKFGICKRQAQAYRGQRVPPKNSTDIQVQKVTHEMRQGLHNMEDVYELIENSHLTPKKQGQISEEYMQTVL
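cAMP rise detected as CNG-channel membrane depolarization by fluorescent dye (emission 590 nm), 30 min after compound, following 60 min dye loading containing 100 uM RO 20-1724 at room temperature. Cells: TSHR/CNG HEK 293, with parental CNG HEK 293 as control.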
A647 autofl = compound fluoresces in the A647 spectral region; 59,000 tested, under 10 active; max dye-equivalent concentration, M; Compound fluorescence, A647 channel (570/671 nm), Tris buffer; active means above 1 µM dye equivalent; inconclusive means 0.1 to 1 µM; inactive means 0.1 µM or less;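 also: values scaled relative to a standard on each plate; highest value over a series up to 38 µM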
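Spectral profiling of library compounds in pH 8.0 Tris: 15 min room-temperature incubation, single ex/em pair (570/671 nm), response normalized to Alexa 647 equivalents.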
A488 autofl = A488 region autofluorescence; compound autofluorescence, A488 spectral region, dye equivalency; stronger effect = higher value; max dye equivalency, M; 59,000 tested, 0.1% active; active = above 10 nM dye equivalent; inconclusive = 1 to 10 nM; inactive = 1 nM or less; about half of its hits are not listed in these tables;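 also: highest value over a series up to 38 µM; compound alone in buffer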
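Intrinsic compound fluorescence is measured in 100 mM Tris buffer at pH 8.0 following 15 min incubation at room temperature. Intensities at 480 nm excitation/540 nm emission are calibrated to an on-plate A488 concentration series, giving dye-equivalent concentrations.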
AID923 = qHTS Assay for Allosteric/Competitive Inhibitors of Caspase-1: Spectroscopic Profiling in AFC Spectral Region; compound fluorescence, AFC spectral region (405/520 nm); almost no hit is shown here; AID 923, 2007; 75,000 tested, 1.1% active; Potency, µM (doses to about 57.5 µM), without a hit: top-dose fluorescence increase, most hits filed as activators; active = well fitted activation curve with a large enough effect; inconclusive = small, poorly fitted or top-dose-only effect;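 also: potency is read from the fitted curve at half-maximal effect; 0% is about no effect; scaled to a free AFC standard on each plate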
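Compound autofluorescence profiled at 405 nm ex/520 nm em during kinetic caspase 1 run (50 nM enzyme, 5 uM Ac-WEHD-AFC, HEPES pH 7.5, 10 mM DTT). Titration up to 57 uM; baseline from regression intercept, normalized to AFC standard curve.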
An asterisk follows results filed as active; i = inactive; ? = inconclusive; / = not tested or not shown; [ ] = another dose, or the depositor's remark. This is a subset, so the mix of outcomes need not match the whole.

SMILES	Resorufin fluor	TSHR agonist	A647 autofl	A488 autofl	AID923
Cc1nnc(SCC(=O)N2CCOCC2)c2ccccc12	i	/	4e-09	i	/
Cn1nnnc1SCCOc1ccc(C#N)cc1	i	-1%	1e-09	i	0.3%
COc1cc(NS(=O)(=O)c2ccc(NC(=O)C3CCCO3)cc2)nc(OC)n1 (stereo not given)	i	-1%	1.4e-08	i	1.7%
O=C(N1CCOCC1)C12CCC3CC(CC(C3)C1)C2	i	-6%	1.3e-08	i	-0.8%
O=C(NCCN1CCCCC1)c1ccc(=O)oc1	i	/	1.4e-08	i	/
CCc1ccccc1-n1c(-c2ccncc2)n[nH]c1=S	i	7%	1e-09	i	-0.1%
CCCn1c(=O)c(C(=O)Nc2ccccc2C(=O)OCC)c(O)c2ccccc21	i	2%	3.3e-08	i	-0.9%
CCOCC(=O)Nc1ccc2c(c1)OCCO2	i	3%	3.4e-09	i	0.3%
CCCN(CCO)Cc1cccc(Cl)c1	i	6%	2e-08	i	0.9%
CCNC(=O)NC(=O)C(C)SCc1ccccc1C (stereo not given)	i	10%	1e-09	i	-1.0%
CC(=O)N1CCc2cc(S(=O)(=O)NCCC(=O)N3CCN(Cc4ccccc4)CC3)ccc21	i	6%	2.4e-08	i	1.9%
CC1Cc2cc(/C(O)=C3/C(=O)C(=O)N(CC4CCCO4)C3c3ccco3)ccc2O1 (stereo not given)	i	-4%	3.6e-09	i	-3.4%
COc1cccc(C(=O)/C=C/Nc2cc(C)ccc2O)c1	i	-19%	1e-09	i	11%
COc1cccc(C(C#N)N2CCCCC2)c1O (stereo not given)	i	1%	6.3e-08	i	-0.2%
CCOC(=O)c1nnc(-c2ccccc2)o1	i	-1%	1.1e-09	i	0.5%

A portion from the list above, for reference:
SMILES	Resorufin fluor	TSHR agonist	A647 autofl	A488 autofl	AID923
COc1cccc(C(=O)/C=C/Nc2cc(C)ccc2O)c1	i	-19%	1e-09	i	11%
COc1cccc(C(C#N)N2CCCCC2)c1O (stereo not given)	i	1%	6.3e-08	i	-0.2%

The listing picks up with the two entries that preceded the break.
SMILES	Resorufin fluor	TSHR agonist	A647 autofl	A488 autofl	AID923
COc1cccc(C(C#N)N2CCCCC2)c1O (stereo not given)	i	1%	6.3e-08	i	-0.2%
CCOC(=O)c1nnc(-c2ccccc2)o1	i	-1%	1.1e-09	i	0.5%
C[C@@H]1C(=O)O[C@@H]2C[C@@]34[C@H]5C[C@@H](C(C)(C)C)[C@@]36[C@@H](OC(=O)[C@@H]6O)O[C@]4(C(=O)O5)[C@@]12O	i	-3%	1e-09	i	/
O=C(NCc1ccco1)Oc1ccccc1	i	11%	1e-08	i	-1.1%
c1ccc(-n2nnnc2N2CCOCC2)cc1	i	4%	1e-09	i	-0.8%
CC(C)CNC(=O)c1c(N)n(/N=C/c2ccccn2)c2nc3ccccc3nc12	i	/	3.8e-08	i	/
COc1cccc(NC(=O)N(Cc2cc3cc(C)cc(C)c3[nH]c2=O)CC2COCCO2)c1 (stereo not given)	i	?	1e-09	i	-2.9%
Cc1ccccc1N=C1NC(=O)CS1	i	2%	1.9e-08	i	-0.4%
CS(=O)(=O)Nc1ccccc1C(=O)Nc1cccc(Cl)c1	i	8%	2.4e-08	i	-0.5%
CC(=O)N(c1ccc(Cl)cc1)c1c[nH]c2ccccc12	/	-4%[11.4 µM]	/	/	-1.5%
COc1ccccc1CNC(=O)CCNC(=O)Cn1cnc2ccccc2c1=O	i	0%	1.6e-08	i	1.6%
COc1cc(/C=N/n2c(C)nnc2C)cc(OC)c1OC	i	/	1e-09	i	/
CCCCCCn1c(CN2CCCC(C)C2)nc2c1c(=O)n(C)c(=O)n2C (stereo not given)	i	?	2e-08	i	-0.8%
CC(=O)OCC1OC(c2cc(C)cc(C)c2)C=CC1OC(C)=O (stereo not given)	/	-1%[11.4 µM]	/	/	1.2%[11.5 µM]
COc1ccc(Nc2nc3ccccc3nc2C)cc1	/	-6%	/	/	0.1%
O=C(Nc1nc(-c2nc3ccccc3s2)cs1)C1CC1	/	9%	/	/	-2.1%
O=C(N1CCN(c2ccc(F)cc2)CC1)C12CC3CC(CC(C3)C1)C2	/	?	/	/	2.7%
CCN(CC)C(=O)C1CCC(C)(C(=O)O)C1(C)C (stereo not given)	i	-2%	5.6e-09	i	0.6%
CCSc1nnc(NC(=O)c2nc(-c3ccccc3)n(-c3ccccc3)n2)s1	i	12%	1e-09	i	0.0%
Cc1nc(NCCN2CCOCC2)c2nnn(Cc3ccccc3Cl)c2n1	i	3%	1.7e-09	i	-1.2%
Cc1nnc(NCc2ccncc2)c2ccccc12	i	-4%	1e-09	i	4.7%
COc1cc(OC)c(C2C(C#N)=C(N)OC3=C2C(=O)CC(C)(C)C3)cc1OC (stereo not given)	/	5%[11.4 µM]	/	/	0.5%
CC(=O)C1(C)CC2=C(CCCC2(C)C)CC1C (stereo not given)	/	3%	/	/	-1.5%
O=c1c2c([nH]c3ccccc13)CCCCCC2	i	8%	1e-09	i	-1.4%
Cc1cc(CN2CCOCC2)c(O)c(C2(C)CCCCC2)c1	i	-1%	4e-09	i	4.0%
COc1ccc(-n2cnnc2SCC(=O)N(C)C2CCS(=O)(=O)C2)cc1 (stereo not given)	i	-4%	1e-09	i	3.1%
COC(=O)[C@@]1(Cc2ccc(OC)cc2)[C@H]2c3cc(C(=O)N4CCCC4)n(CCc4c[nH]c5cc(F)ccc45)c3C[C@H]2CN1C(=O)c1ccccc1	/	2%	/	/	-0.6%
CCOC(=O)C1CCCN(S(=O)(=O)c2ccc(Br)s2)C1 (stereo not given)	i	?	6.8e-09	i	-1.2%
Cc1noc(C)c1COC(=O)c1ccc2c(c1)OCO2	i	5%	2.4e-08	i	1.2%
CCOC(=O)c1sc(NC(=O)c2c(C)noc2C)c(C(=O)OCC)c1C	i	1%	3e-08	i	0.3%
Cc1cccc(OCCSc2cc(C)nc(N)n2)c1	/	?	/	/	4.9%
CCCC(c1nnnn1Cc1ccc(F)cc1)N1CCN(C2CCCCC2)CC1 (stereo not given)	i	?	2.1e-08	i	0.1%
CCC(=O)Nc1ccc(OC)cc1OC	i	15%	3e-08	i	-2.4%
CC1CCCN(S(=O)(=O)c2ccc(NC(=O)CN3CCN(C)CC3)cc2)C1 (stereo not given)	i	-3%	4.4e-08	i	-2.0%
O=C(CCNc1cccc(Cl)c1)c1ccco1	i	-2%	6.4e-09	i	1.4%
COc1cc2c(cc1OC)C(c1cc(OC)c(OC)c(OC)c1)NCC2 (stereo not given)	i	3%	2.7e-09	i	-1.9%
Cc1ccc(-n2ncc3c(=O)[nH]c(SCC(=O)N4CCCCC4)nc32)cc1	/	4%	/	/	2.1%
CCOCCn1c(CN2CCN(c3ccc(OC)cc3)CC2)nc2c1c(=O)n(C)c(=O)n2C	i	6%	3.5e-08	i	-0.2%
CCn1c(-c2ccc(OC)c(OC)c2)n[nH]c1=S	i	8%	1e-09	i	0.5%
CC(C)CN1CCc2nc(-c3ccccc3)c3c(c2CC1)COC(C)C3 (stereo not given)	/	-5%[11.4 µM]	/	/	-1.7%[11.5 µM]
Cn1c(=O)c(CCc2ccccc2)nc2cnc(Oc3ccccc3)nc21	i	?	3e-09	i	2.9%
NC(=O)CC[C@@H](N)C(=O)O	i	?	5e-08	i	-2.0%
CO/N=C(/C)CCC(=O)OC[C@@H]1O[C@H](C#Cc2ccccc2)C=C[C@@H]1Oc1ccc(C)cc1	/	6%[11.4 µM]	/	/	-2.6%[11.5 µM]
O=C(Cc1cccs1)Nc1nc2ccccc2s1	i	-1%	6.4e-09	i	-1.2%
COC(=O)C1=C(C)OC(N)=C(C#N)C1c1c(C)nn(-c2ccccc2)c1Cl (stereo not given)	i	6.3µM*	3.8e-08	i	0.1%
CCOC(=O)C(C)Oc1ccc(C2NC(=O)NC(C)=C2C(=O)Nc2ccccc2C)cc1 (stereo not given)	i	4%	3.6e-08	i	3.9%
Cc1ccc(C(=O)Nc2cnc3sc(C)nn3c2=O)cc1	i	-1%	3.4e-09	i	-0.3%

Brought forward from above: 3 compounds, followed by the next part.
SMILES	Resorufin fluor	TSHR agonist	A647 autofl	A488 autofl	AID923
COC(=O)C1=C(C)OC(N)=C(C#N)C1c1c(C)nn(-c2ccccc2)c1Cl (stereo not given)	i	6.3µM*	3.8e-08	i	0.1%
CCOC(=O)C(C)Oc1ccc(C2NC(=O)NC(C)=C2C(=O)Nc2ccccc2C)cc1 (stereo not given)	i	4%	3.6e-08	i	3.9%
Cc1ccc(C(=O)Nc2cnc3sc(C)nn3c2=O)cc1	i	-1%	3.4e-09	i	-0.3%
CCC(COC(=O)Nc1cccc(C)c1)NC(=O)OCC(C)C (stereo not given)	i	?	2.9e-08	i	-1.3%
CCCCn1c(=O)[nH]c(=O)c2c1nc(-c1ccc(C#N)cc1)n2C1CCCC1	i	16%	1e-09	i	0.8%
O=C(Nc1ccc(Cl)cn1)C1CCCN1S(=O)(=O)c1ccccc1 (stereo not given)	i	/	2.8e-08	i	/
COc1ccc(CNc2nc(-c3ccccc3OC)nc3ccccc23)c(OC)c1	i	?	1.3e-08	i	-0.9%
Cc1cc(N2CCN(C(=O)OC(C)(C)C)CC2)n2ncnc2n1	i	6%	1.2e-08	i	1.4%
CC(=O)N1CN(CCCn2ccnc2)Cc2c1sc1c2CCCC1	i	0%	3.3e-08	i	2.8%
COc1ccccc1OCC(=O)Nc1ccccn1	i	-9%	7.5e-09	i	-1.0%
Cc1cc(C)c2nc(-c3ccccn3)cc(C(=O)Nc3cc(C)on3)c2c1	i	?	1e-09	i	0.3%
O=C1NC(=O)c2c(NC(=O)C3CCCO3)cccc21 (stereo not given)	i	15%	1e-09	i	0.5%
O=C(Nc1ccc(Cl)cn1)C1CCCN1S(=O)(=O)c1ccc(Cl)cc1 (stereo not given)	i	/	2e-08	i	-4.3%
CC(=O)Nc1ccc(S(=O)(=O)NCCc2ccccc2)cc1	i	12%	1e-09	i	0.7%
Cc1ccc(-n2ncc(-c3nnc(SCC(=O)NC4CCCC4)o3)c2N)cc1C	i	23%	4.8e-08	i	0.9%
O=C(CCN1CCN(CC(=O)Nc2ccccc2F)CC1)Nc1ccccc1F	i	2%	1e-09	i	-0.4%
Cc1cc(OC2CCCCC2)nc(-c2ccccc2O)n1	/	17%[11.4 µM]	/	/	1.2%
CN(C)c1cccc(NC(=O)Cc2ccc(F)cc2)c1	/	-21%	/	/	0.0%
CCn1c(Cc2ccccc2)nnc1SCC(=O)Nc1nccs1	i	0%	3.8e-08	i	-2.2%
Nc1nc2c(c3c1c(=O)oc1ccccc13)CCCCC2	/	5%[11.4 µM]	/	/	12%
CC(C)CO/N=C1/C[C@@H](O)[C@@H](O)[C@@H]2[C@@H]3C(=O)N(C[C@@H]4CCCO4)C(=O)[C@H]3CC[C@H]12	/	-2%[11.4 µM]	/	/	-0.3%[11.5 µM]
Cc1cc(C)n2nc(C(=O)NCc3ccccc3)cc2n1	/	7%[11.4 µM]	/	/	0.1%
CCN(CC(=O)NC1CCCCC1)S(=O)(=O)c1ccc(Cl)cc1	i	-7%	3.1e-08	i	-1.9%
COc1ccc(C(c2nnnn2Cc2cccs2)N2CCN(c3ccccc3F)CC2)cc1 (stereo not given)	i	?	4.1e-09	i	-0.5%
COCc1[nH]nc2c1C(c1c(F)cccc1Cl)C(C#N)=C(N)O2 (stereo not given)	i	5%	9.3e-09	i	1.8%
Cn1c(=O)n(Cc2ccc(Cl)cc2)c(=O)c2c1nc1n2CCN1Cc1ccco1	i	-14%	2e-08	i	1.2%
CCOC(=O)c1ccccc1NS(=O)(=O)c1ccccc1	i	/	1e-09	i	-0.6%
O=C1CCC(=O)N1c1nc2n(n1)C(c1ccccc1)C=C(c1ccc(Br)cc1)N2 (stereo not given)	i	/	1e-09	i	/
